# Screening results: PubChem BioAssay, National Center for Advancing Translational Sciences (NCATS)
# PK Bst – alters activity of Bacillus stearothermophilus pyruvate kinase; partly purified Bacillus stearothermophilus pyruvate kinase, luminescence ATP production; ribose 5-phosphate activator present at AC10; Potency, µM; 51,000 compounds, 1.2% hits; in the data active means potency below about 11 µM; inconclusive means mostly about 12 µM to 25 µM; inactive means weaker than that;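 the screen sought inhibitors and activators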;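 also: potency is read from the fitted curve at half-maximal effect; scaled between full activation by ribose 5 phosphate and full inhibition by luteolin; about four in five hits inhibit and the cells do not say which; series up to 57 µM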
# TsaE inh – inhibitors of E. coli YjeE (TsaE). P0AF67. purified YjeE, fluorescence polarisation of a bound ADP probe. Potency, µM. 71,000 compounds, 0.05% hits. AID 605; active = well fitted falling curve; inconclusive = weaker or top-dose-only fall, or a rising curve; inactive = flat or poorly fitted curve;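 also: top concentration of the series not given in the record; excess ADP was the control for the full effect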
#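 Purified YjeE (10 uM) with BODIPY Texas Red-labeled ADP probe (2 uM); compounds pin-transferred, 15 min at room temperature. Binding inhibition read as decreased fluorescence polarization; ADP titration as control.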
# * hit, by the source's call; i = inactive; ? = inconclusive; / = no result given. Only part of the results is shown; rates above refer to the full screens.
PK Bst	TsaE inh	smiles
>57	i	COc1ccc(NC(=O)N2c3ccccc3CC2C)cc1OC (centres undefined)
>57	i	Cc1oc(-c2ccccc2F)nc1CN1CCC(C(=O)NCc2ccco2)CC1
/	i	Nc1nc(SCc2ccccc2Cl)cc(C(=O)O)n1
>57	i	CCOC(=O)C1CCN(C(=O)c2ccccc2Oc2ccccc2)CC1
>57	i	O=C(CSc1ncn[nH]1)OCN1C(=O)c2ccccc2C1=O
>57	i	CCn1c(COc2ccccc2C)nnc1SCC(=O)OC
>57	i	O=C(C1CCN(S(=O)(=O)Cc2ccccc2)CC1)N1CCCc2ccccc21
/	i	Nc1ncnc2c1ncn2[C@H]1CC[C@@H](CO)O1
?	i	O=C1C(c2ccncc2)=C(O)c2ccccc21
>57	i	Cc1onc(-c2ccccc2)c1C(=O)Nc1ccncc1
/	i	COc1ccc(OC)c(C2CC(=O)N3CN(c4cccc(Cl)c4C)CSC3=C2C#N)c1 (centres undefined)
>57	i	Cc1ccc(S(=O)(=O)CCc2nnc(NC(=O)c3cnccn3)s2)cc1
>57	i	COCCCNC(=O)CS(=O)(=O)Cc1nc(-c2cccc(OC)c2)oc1C
>57	i	O=C(C1=COCCO1)N1CCN(C(c2ccccc2)c2ccccc2)CC1
>25.6	/	CN(C=C1C(=O)CC(C)(C)CC1=O)CCN1CCNCC1
i	i	COc1ccc(C(=O)Nc2ccccc2C(N)=O)cc1
/	i	Cc1c(NC(=O)C(C)N2C(=O)C3C4C=CC(C4)C3C2=O)c(=O)n(-c2ccccc2)n1C (centres undefined)
>57	i	COc1ccc(CNC(=O)c2c(O)c3cccc4c3n(c2=O)CCC4)cc1
>57	i	O=C(CSc1nnc(-c2ccccc2)o1)n1c2c(c3ccccc31)CCCC2
>57	i	O=C(C1CC1)N1CCc2cc(Br)cc(S(=O)(=O)NCC3COc4ccccc4O3)c21 (centres undefined)
/	i	c1ccc(CN2CCN(c3nc4ccccc4n4cnnc34)CC2)cc1
>25.6	/	Cc1ccc(/C(O)=C2/C(=O)C(=O)N(Cc3ccco3)C2c2cccs2)cc1 (centres undefined)
>57	i	Cc1ccc(S(=O)(=O)NCCCN(C)C)cc1
>57	i	CCCCn1c(SCC(=O)Nc2cc(C)[nH]n2)nc2ccsc2c1=O
>57	i	O=C(CCCn1c(=S)[nH]c2ccc(Br)cc2c1=O)N1CCN(c2ccccn2)CC1

# Whole records, quoted from the list. Values in the order: PK Bst	TsaE inh
# Shown for Cc1ccc(S(=O)(=O)NCCCN(C)C)cc1 : >57	i
# Shown for O=C(CSc1ncn[nH]1)OCN1C(=O)c2ccccc2C1=O : >57	i
# Shown for Cc1oc(-c2ccccc2F)nc1CN1CCC(C(=O)NCc2ccco2)CC1 : >57	i
# Shown for O=C(C1=COCCO1)N1CCN(C(c2ccccc2)c2ccccc2)CC1 : >57	i
# Shown for CCOC(=O)C1CCN(C(=O)c2ccccc2Oc2ccccc2)CC1 : >57	i

# The main list resumes, repeating the 2 entries before the break.
PK Bst	TsaE inh	smiles
>57	i	CCCCn1c(SCC(=O)Nc2cc(C)[nH]n2)nc2ccsc2c1=O
>57	i	O=C(CCCn1c(=S)[nH]c2ccc(Br)cc2c1=O)N1CCN(c2ccccn2)CC1
/	i	O=c1nc2ccccc2c2n1C[C@H](CN1CCN(c3ccccc3)CC1)N2
>57	i	COc1ccc(S(=O)(=O)N2CCCC2C(=O)NCc2cccs2)cc1 (centres undefined)
/	i	CCCCOC(=O)CCc1n[nH]c(=O)[nH]c1=O
>57	i	C=CCn1c(SCC(=O)Nc2c(C)nn(Cc3ccccc3)c2C)nnc1C(O)c1ccccc1 (centres undefined)
>57	i	COC(=O)c1nnn(-c2nc(N3CCCCC3)nc(N3CCCCC3)n2)c1C
/	i	O=C(Nc1ccccc1-c1nc2ccccc2s1)c1ccco1
>25.6	/	CCn1c(-c2ccco2)n[nH]c1=S
/	i	O=C(Oc1ccc(/C=N/O)cc1)c1ccccc1
/	i	COc1ccc(OC)c(NC(=O)C2C3CCC(O3)C2C(=O)O)c1 (centres undefined)
/	i	Cc1ccc(S(=O)(=O)C2(C(=O)Nc3ccc4c(c3)OCO4)CC2)cc1
/	i	CS(=O)(=O)N1CCC2(CC1)CN(c1cccc(-c3ccccc3)c1)C2
>57	i	COc1ccc(CNC(=O)CCCNS(=O)(=O)c2cccc3nonc23)cc1
/	i	CCOc1cc(C2CC(=O)N3CN(C4CCCCC4)CSC3=C2C#N)ccc1O (centres undefined)
/	i	Nc1nnnn1/N=C/C(Br)=C/c1ccccc1
>57	i	CCOC(=O)Cc1csc(NS(=O)(=O)c2ccc3c4c(cccc24)C(=O)N3CC)n1
>57	i	CCS(=O)(=O)N1CCC(c2nc(-c3ccc(C)cc3)no2)CC1
>57	i	Cc1ccc(-c2cc(C(=O)NCCN3CCOCC3)no2)cc1
>57	i	Cc1cc(C)cc(-n2ccnc2SCC(=O)Nc2nccs2)c1
1.21*	i	CC1CCc2nc(NC(=O)c3ccco3)sc2C1 (centres undefined)
/	i	CCOC(=O)c1[nH]c(C)c(C(=O)Nc2ccc(C)cc2C)c1C
>57	i	CCOc1ccc(C(=O)N2CCCC2)cc1OC
/	i	CCNc1ncc2ncc(=O)n(Cc3cccs3)c2n1
/	i	O=C(O)[C@@H](c1ccccc1)[C@@H](C(=O)O)c1ccccc1
>57	i	CCc1ccccc1N1CSC2=C(C#N)C(c3cc(OC)c(OC)cc3OC)CC(=O)N2C1 (centres undefined)
>57	i	CC(C)Cn1c(N)c(C(=O)CSc2nnnn2-c2ccc(Cl)cc2)c(=O)n(C)c1=O

PK Bst	TsaE inh	smiles
>57	i	COc1ccccc1NC(=O)c1cccc(NC(=O)c2ccco2)c1
>57	i	COc1cc(CC(=O)OC2CCOC2=O)cc(OC)c1OC (centres undefined)
>57	i	O=c1cc(N2CCc3ccccc3C2)[nH]c(=O)n1-c1ccc(Cl)cc1
>57	i	O=C1CC(N2CCN(c3ccc(S(=O)(=O)N4CCOCC4)cc3)CC2)C(=O)N1Cc1ccccc1 (centres undefined)
/	i	CN(C)CCCOc1nn(Cc2ccccc2)c2ccccc12
>57	i	C=C(c1ccc(O)cc1)c1ccc(O)cc1
>57	i	Cc1ccccc1NC(=O)CSC(N)=O
>57	i	CN1C(=O)c2ccccc2C(C(=O)NCCCN2CCCC2=O)C1c1c[nH]c2ccccc12 (centres undefined)
5.93*	i	Brc1ccc(-c2cn3cccnc3n2)cc1
/	i	CNc1cc(-n2nc(C)cc2-c2ccccc2)ncn1
>57	i	CCOc1ccccc1CN(Cc1ccco1)S(=O)(=O)c1ccc(-n2cnnn2)c(OC)c1
>57	i	COc1ccccc1Cn1c(CCCO)nc2ccccc21
>57	i	COCCn1cc(C(=O)N2CCC(C)CC2)c2c3ccccc3n(C)c2c1=O
>57	i	O=C(CNC(=O)c1ccco1)OCc1ccc(C(=O)Oc2ccccc2)cc1
>57	i	CCOC(=O)c1c(C)[nH]c(C)c1C(=O)COC(=O)c1cccc(S(=O)(=O)NC)c1
>11.4	/	Nc1c2c(nc3ccccc13)N(C1CCCCC1)CC2
/	i	Cc1nc(SCN2C(=O)c3ccccc3C2=O)n[nH]1
>57	i	CC(=O)OC1CC(C)(C)N(OC(=O)c2ccccc2)C(C)(C)C1
/	i	Cc1ccc(C(=O)N(Cc2nc(-c3ccc(C)cc3)no2)C(C)C)cc1
>57	i	Cc1ccc(-c2nnc3sc(CCc4ccccc4)nn23)cc1
>57	i	CCOCCCNC(=O)C1CCC(CNS(=O)(=O)c2ccc(F)cc2)CC1 (centres undefined)
/	i	CN1CC(=O)N/C1=N\C(=O)Nc1ccc2c(c1)N(C)C(=O)CS2
/	i	C=CCn1c(C)c(C(C)=O)c(N2CCCC2)nc1=S
/	i	COC(=O)c1cc(NC2c3ccccc3C(=O)N2c2ccc(Cl)cn2)cc(C(=O)OC)c1 (centres undefined)
>57	i	COC(=O)c1[nH]c(C)c(/C(O)=C2\C(=O)C(=O)N(CCN(C)C)C2c2ccc(C)o2)c1C (centres undefined)

PK Bst	TsaE inh	smiles
>57	i	Cc1ccc(C(=O)NCCN(C)C)c(C)c1
>57	i	CCOc1ccc(C)cc1S(=O)(=O)Nc1cccnc1
/	i	Cc1ccccc1-c1cc(Nc2ccc(F)cc2)ncn1
>57	i	c1ccc(CN(Cc2ccco2)C(c2ccncc2)c2nnnn2C2CCCC2)cc1 (centres undefined)
/	i	CC1=CC(=C(C#N)c2nc3ccccc3s2)C=C(C)N1Cc1ccco1
/	i	CS(=O)(=O)NCCSCc1ccc(Cl)cc1
?	i	COC(=O)CNC(=O)COC(=O)c1cc(Cl)cc(Cl)c1N
/	i	C[C@@]12CCC(=O)C=C1CC[C@H]1[C@@H]2[C@@H](O)C[C@]2(C)[C@@H]1CC[C@@]2(O)C(=O)COC(=O)C1CCCC1
>57	i	O=C(NCCN1CCN(c2ccccc2F)CC1)C1c2ccccc2C(=O)N2CCc3ccccc3C12 (centres undefined)
/	i	CC1CCN(C(=O)CNC(=O)Cn2ccc3ccccc3c2=O)CC1
/	i	CCN(CC)S(=O)(=O)c1cc(C(=O)Nc2ccccc2C(=O)O)ccc1OC
>57	i	CCOC(=O)CCSc1nc(C)cc(C(F)(F)F)c1C#N
>57	i	COC1(OC)N=C(NC(=O)Nc2ccccc2)C2(C#N)C(c3ccccc3)C12C#N (centres undefined)
/	i	Cc1ccccc1NC(=O)CSc1nnc(Cc2cccn2C)n1-c1ccc(F)cc1
/	i	CCN(CC)CCCC(C)n1c(-c2ccccc2)nc2c(N(CCOC)CCOC)nc(C)nc21 (centres undefined)
>57	i	Cc1cc(N2CCN(C/C=C/c3ccccc3)CC2)n2ncnc2n1
>57	i	CCN1CCN(c2ccc(NC(=O)c3cccnc3)cc2Cl)CC1
>57	i	CC(=O)c1cc(-c2ccccc2)n(CC(=O)NCc2cccs2)c1C
>57	i	COC(=O)c1cc(Cl)c(NS(=O)(=O)c2ccccc2)cc1OC
/	i	CCOC(=O)N1CCC(Nc2c(OCC)c(=O)c2=O)CC1
>57	i	COC(=O)c1ccc(COc2cc(O)c3c(c2)OC(C)(C)CC3=O)cc1
>57	i	CCOC(=O)N1CCN(C(=O)c2ccccc2NC(=O)c2ccc(OC)cc2)CC1
>57	i	O=C(c1ccc(=O)oc1)N1CCCc2ccccc21
>57	i	CC1CCN(C(=O)COC(=O)c2cc3ccccc3cc2O)CC1
>57	i	CC(=O)Nc1ccc(C(=O)CSc2nnc(C)o2)cc1

PK Bst	TsaE inh	smiles
/	i	CCCCNc1nc(C)nc2c1nc(C)n2CCC
>57	i	COC(=O)c1cn(C(=O)c2ccccc2F)nc1N
>57	i	COc1cccc(-n2c(SCC(=O)O)nnc2-c2cccnc2)c1
>57	i	Cc1cc(S(=O)(=O)NCCCN2CCOCC2)ccc1F
>57	i	COc1ccc(C2=NOC(C(=O)NCC(C)C)C2)cc1 (centres undefined)
>57	i	O=C(C1CCN(S(=O)(=O)c2cccnc2)CC1)N1CCN(C2CCCC2)CC1
5.63*	i	COc1cccc(-c2cc(C(=O)Nc3cccc(O)c3)no2)c1
>57	i	O=C(c1c[nH]c2ccc(S(=O)(=O)N3CCOCC3)cc2c1=O)N1CCCC1
/	i	CCCN1Cc2cccc(C(=O)Nc3ccc4c(c3)OCO4)c2C1=O
/	i	CCOC(=O)c1cnc2c(C)c(Cl)ccc2c1N1CCOCC1
/	i	Cc1c(Cl)cccc1NC(=O)CCN1CCCCC1
>57	i	Cc1noc(C)c1CSc1nc2ccccc2n1CCc1ccccc1
/	i	CCOC(=O)Cn1c(C(C)=O)nc2ccccc21
/	i	CC(C)CSC[C@@H]1O[C@H](n2cnc3c(N)nccc32)[C@H](O)[C@@H]1O
>57	i	COc1ccc(NCc2nnc(SCC(=O)Nc3cc(C(F)(F)F)ccc3Cl)o2)cc1
/	i	COc1ccc2[nH]c(=O)c(CN(CCCN(C)C)C(=O)Nc3ccccc3)cc2c1
>25.6	/	Cc1cc2c(c(=O)n1Cc1ccccn1)C(c1ccc3c(c1)OCO3)C(C#N)=C(N)O2 (centres undefined)
>57	i	COc1cccc(C(=O)NC2CC3CCCC(C2)N3CC(=O)Nc2ccc(N(C)C)cc2)c1 (centres undefined)
>57	i	COc1cccc(-c2nnc(SCc3cccnc3)o2)c1
>57	i	CN(c1ccc(C(=O)NCc2ccco2)cc1)S(C)(=O)=O
>57	i	CCOc1cc(S(=O)(=O)NCc2ccccc2)ccc1F
>57	i	COc1ccc(CCNC(=O)COC(=O)c2cnccn2)cc1
>57	i	C=CCn1c(SCC(=O)C(C)(C)C)nnc1-c1cccs1
/	i	CC1(C)CC(=O)N(c2ccccc2)C1(C)O (centres undefined)
>57	i	CCCc1ccc(OCC(O)CN2CCN(c3ccccc3)CC2)cc1 (centres undefined)
/	i	COc1cc(NC(=O)C2CCC(CNc3c(N4CCCCC4)c(=O)c3=O)CC2)cc(OC)c1 (centres undefined)
/	i	COc1ccc(NC(=O)/C=C\c2ccc(Cl)cc2)cc1
/	i	CN(C)CCNS(=O)(=O)N(C)C

# 5 compounds picked at random from the list so far, as already listed:
PK Bst	TsaE inh	smiles
/	i	Cc1c(Cl)cccc1NC(=O)CCN1CCCCC1
/	i	CN(C)CCNS(=O)(=O)N(C)C
>57	i	COc1cccc(-n2c(SCC(=O)O)nnc2-c2cccnc2)c1
>57	i	COc1ccc(C2=NOC(C(=O)NCC(C)C)C2)cc1 (centres undefined)
/	i	COc1cc(NC(=O)C2CCC(CNc3c(N4CCCCC4)c(=O)c3=O)CC2)cc(OC)c1 (centres undefined)
